From PubChem
DUX4 inh: blocks DUX4-driven transcriptional activation. AID 1224904. 293T-iDUX4 ZSCAN4-Gaussia luciferase reporter, 24 h; hits give low values. actives 0.8% (n = 37,000). activity change, negative = inhibition, % (concentration not given with the values);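 active = -10% or lower and over 25 points stronger than a control reporter; inconclusive = -10% or lower with a smaller gap; inactive = above -10%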;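 note: 0% = median of neutral control wells and -100% = median of positive control wells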
DUX4 inh difference: further read-out of DUX4 inh, marked with its call; Gaussia minus Italica difference, %; measured here: selective DUX4 reporter inhibition;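 worked out from the two reporters; negative = selective loss of the DUX4 reporter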
DUX4 inh control: recorded beside DUX4 inh, whose call it bears; activity change, negative = inhibition, %; measured here: Italica tet-on control reporter;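 0 = neutral control and -100 = positive control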
An asterisk follows results filed as active; ? = inconclusive; · = not tested or not shown; & = joins results of further samples.

Results follow in this order: DUX4 inh, DUX4 inh difference, DUX4 inh control
CO[C@@H]1CN(C)C(=O)c2cc(NC(=O)C3CCCCC3)ccc2OC[C@@H](C)N(C(=O)c2ccccc2)C[C@@H]1C
→ -0.6, -1.5, 0.9
O=C(c1cccc(F)c1)N1CC[C@H]2[C@H](CO)Nc3ccc(-c4ccccc4F)cc3[C@H]21
→ -6.1, 1.7, -7.8
CO[C@H]1CC[C@H]2CCOc3c(C#N)cccc3C(=O)N(C)C[C@H](OC)[C@@H](C)C(=O)N(C)C[C@H]1O2
→ 0.2, 1.5, -1.3
CC(C)(O)C#Cc1ccc([C@H]2[C@@H](CO)N3CCCCN(C(=O)c4ccc(F)cc4)C[C@@H]23)cc1
→ 6.6, 2.0, 4.6
CC(C)C#Cc1ccc([C@H]2[C@@H](CO)N(C(=O)C3CCC3)[C@H]2C#N)cc1
→ 1.0, -0.8, 1.8
CC(=O)N1[C@@H]2c3ccc(C4=CCCC4)c(=O)n3C[C@H]1[C@H](CO)[C@H]2C(=O)N[C@@H](C)c1ccccc1
→ 0.8, 3.4, -2.6
CC(C)COC(=O)N(C)C[C@@H]1OCc2cnnn2CCCC(=O)N([C@H](C)CO)C[C@H]1C
→ 4.3, 4.1, 0.2
CCC(=O)N1[C@H](CO)[C@H]2c3ccccc3N(C(=O)Nc3cccc(Cl)c3)C[C@H]21
→ 1.5, 0.7, 0.8
CCN1CC(=O)N2[C@H](C1)[C@@H](c1ccc(Br)cc1)[C@@H]2CO
→ 14.1, 11.6, 2.5
CC(C)NC(=O)N(C)C[C@@H]1OCCCC[C@@H](C)Oc2ccc(NS(C)(=O)=O)cc2C(=O)N([C@@H](C)CO)C[C@H]1C
→ -2.9, -2.0, -0.9

The results go on:
Results follow in this order: DUX4 inh, DUX4 inh difference, DUX4 inh control
CCC(=O)N1CC2(CN[C@H](CO)c3c2c2ccc(OC)cc2n3C)C1
→ 13.0, 11.5, 1.4
O=C([C@@H]1[C@@H](CO)[C@@H]2Cn3c(ccc(-c4cccc(F)c4)c3=O)[C@@H]2N1Cc1cocn1)N1CCCCC1
→ -2.3, -2.9, 0.6
CC(C)C#Cc1ccc([C@@H]2[C@@H](CO)N(C(=O)C3CCC3)[C@H]2C#N)cc1
→ -1.3, -0.1, -1.3
CN(C)CCCNC(=O)C[C@@H]1CC[C@H]2[C@H](COc3ccc(NC(=O)c4ccc5c(c4)OCO5)cc3C(=O)N2C)O1
→ 1.3, 0.7, 0.7
CC(=O)N1[C@H](CO)[C@H]2c3ccccc3N(S(=O)(=O)c3ccc(F)cc3)C[C@H]21
→ -1.6, -4.6, 3.0
CCCNC(=O)N1CC2(C1)[C@H](c1ccccc1)[C@@H](CO)N2C(=O)C1CC1
→ 1.8, 0.2, 1.6
O=C(Nc1ccc(F)cc1)N1C[C@H]2[C@@H](c3ccccc31)[C@@H](CO)N2Cc1cocn1
→ -4.3, -4.6, 0.4
Cc1ccc(-c2ccc([C@@H]3[C@H](CO)N4C(=O)CN(C(=O)Nc5ccc(F)cc5)C[C@@H]34)cc2)cc1
→ -1.7, -2.1, 0.4
COc1ccc(CN2CC3(CCN(C(=O)C4CCC4)CC3)c3c(n(C)c4cc(OC)ccc34)[C@H]2CO)cc1
→ ?, ·, ·
O=S(=O)(c1ccc(-c2ccccc2)cc1)N1C[C@@H]2N[C@H](C1)C2c1ccc(-c2ccncc2)cc1 (stereo not given in full)
→ -32.8*, -33.9*, 1.1*

Additional structures.
Results follow in this order: DUX4 inh, DUX4 inh difference, DUX4 inh control
O=C(NCC(F)(F)F)[C@@H]1[C@@H](CO)[C@@H]2Cn3c(cccc3=O)[C@H]1N2CC1CC1
→ 1.5, -3.6, 5.1
O=C(Nc1ccc2c(c1)[C@H]1C[C@H](CC(=O)N3CCCCC3)O[C@@H](CO)[C@H]1O2)NC1CCCCC1
→ 16.2, 4.3, 11.9
COc1ccc(S(=O)(=O)N(C)C[C@H]2OCCCC[C@@H](C)Oc3ccc(NC(=O)Nc4cccc5ccccc45)cc3C(=O)N([C@H](C)CO)C[C@@H]2C)cc1
→ 7.1, 0.7, 6.3
CNC[C@@H]1OCc2cnnn2CCCC(=O)N([C@H](C)CO)C[C@@H]1C
→ 1.0, 2.9, -1.9
Cc1noc(C)c1NC(=O)Nc1ccc2c(c1)C(=O)N([C@H](C)CO)C[C@@H](C)[C@H](CN(C)Cc1ccc3c(c1)OCO3)OCCCC[C@H](C)O2
→ 3.1, 3.8, -0.7
CCCC#Cc1ccc([C@@H]2[C@H]3CN(S(=O)(=O)Cc4ccccc4)CC(=O)N3[C@H]2CO)cc1
→ -7.6, 0.2, -7.8
COc1cccc(CN2[C@H](CO)[C@@H]3c4ccccc4N(C(=O)C4CC4)C[C@@H]32)c1
→ 1.8, 1.8, 0.0
O=C(C[C@@H]1CC[C@H]2[C@@H](COC[C@@H](O)CN2C(=O)c2ccccc2F)O1)N1CCOCC1
→ 11.7, -1.6, 13.3
C[C@@H]1CN([C@H](C)CO)C(=O)CCCn2cc(nn2)CO[C@H]1CN(C)S(=O)(=O)c1ccccc1F
→ 4.0, 2.6, 1.4
CCCN(C[C@@H]1N[C@@H](CO)[C@H]1c1ccc(-c2cccnc2)cc1)C(C)=O
→ 2.4, -4.8, 7.2

More records follow.
Results follow in this order: DUX4 inh, DUX4 inh difference, DUX4 inh control
CCN1[C@H](C(=O)Nc2ccccc2)[C@@H](CO)[C@@H]2Cn3c(ccc(-c4ccccc4)c3=O)[C@@H]21
→ -3.7, 0.3, -4.0
COc1ccc(-c2ccc([C@H]3[C@@H](C#N)N(C(=O)NC(C)C)[C@@H]3CO)cc2)cc1
→ -2.3, -6.3, 4.0
O=C(NC[C@H]1N[C@H](CO)[C@@H]1c1ccc(C2=CCCC2)cc1)c1ccccc1
→ -1.2, 3.0, -4.2
CCC(=O)Nc1ccc2c(c1)OC[C@@H](C)N(C(=O)C1CC1)C[C@H](C)[C@@H](OC)CN(C)C2=O
→ 2.1, -4.7, 6.8
C[C@H]1CN([C@@H](C)CO)S(=O)(=O)c2ccc(-c3ccc(C#N)cc3)cc2O[C@H]1CN(C)C(=O)C1CC1
→ -6.4, -2.4, -4.0
O=C(Nc1ccccc1F)N1CC(=O)N2[C@H](CO)[C@H](c3ccc(-c4ccc(F)cc4)cc3)[C@@H]2C1
→ -3.2, 4.6, -7.8
C[C@H](NC(=O)C[C@@H]1C=C[C@@H](NC(=O)CN2CCOCC2)[C@H](CO)O1)c1ccccc1
→ 12.1, 6.7, 5.4
CCCNC(=O)N1[C@@H]2CN(C(=O)CC)c3ccccc3[C@@H]2[C@@H]1CO
→ 0.1, 6.2, -6.1
CCCNC(=O)N1CC2(CN(C(=O)CN(C)C)C2)c2c(n(C)c3cc(OC)ccc23)[C@H]1CO
→ 30.2, 17.2, 13.0
C[C@@H]1CN([C@H](C)CO)C(=O)c2ccccc2-c2ccccc2CO[C@@H]1CN(C)Cc1ccncc1
→ 16.3, 11.8, 4.5

(more compounds)
Results follow in this order: DUX4 inh, DUX4 inh difference, DUX4 inh control
O=C(C[C@@H]1CC[C@H]2[C@@H](COC[C@@H](O)CN2Cc2cccc(F)c2)O1)NCC1CCCCC1
→ ?, ·, ·
CCCC#Cc1ccc([C@H]2[C@@H](CO)N3CCCCN(S(C)(=O)=O)C[C@H]23)cc1
→ 0.9, -15.1, 16.0
CCCNC(=O)N1CC2(CCN(Cc3cccc(OC)c3)CC2)c2c([nH]c3cc(OC)ccc23)[C@H]1CO
→ ?, ·, ·
Cc1ccc(-c2ccc([C@H]3[C@H]4CN(C(=O)NC(C)C)CC(=O)N4[C@H]3CO)cc2)cc1
→ 6.9, -1.8, 8.7
O=C(Nc1ccc(F)cc1)N1CC(=O)N2[C@H](CO)[C@@H](c3ccc(C#Cc4cccnc4)cc3)[C@H]2C1
→ -7.3, -10.1, 2.8
C[C@@H]1CCCCO[C@H](CN(C)S(=O)(=O)c2ccc(Cl)cc2)[C@H](C)CN([C@H](C)CO)C(=O)c2cc(NS(=O)(=O)c3cn(C)cn3)ccc2O1
→ -3.0, -1.9, -1.1
O=C(Nc1ccc(C(F)(F)F)cc1)Nc1ccc2c(c1)[C@@H]1C[C@@H](CC(=O)N3CCc4ccccc4C3)O[C@H](CO)[C@@H]1O2
→ ?, ·, ·
O=C(NCC1CCCCC1)[C@H]1[C@H](CO)[C@H]2Cn3c(ccc(-c4cncnc4)c3=O)[C@@H]1N2
→ -9.3, -12.8, 3.5
COc1ccc(C(=O)N2C[C@H]3[C@@H](c4ccccc42)[C@H](CO)N3C(=O)c2ccc(F)cc2)cc1
→ -0.1, -1.8, 1.7
COCC(=O)N(C)C[C@H]1Oc2cc(-c3ccc(OC)cc3)ccc2S(=O)(=O)N([C@H](C)CO)C[C@H]1C
→ -0.9, -5.5, 4.6

Single entries from the list.
Reading of COc1ccc(C(=O)N2C[C@H]3[C@@H](c4ccccc42)[C@H](CO)N3C(=O)c2ccc(F)cc2)cc1 under DUX4 inh control: 1.7
Reading of CCCC#Cc1ccc([C@H]2[C@@H](CO)N3CCCCN(S(C)(=O)=O)C[C@H]23)cc1 under DUX4 inh: 0.9
Reading of COCC(=O)N(C)C[C@H]1Oc2cc(-c3ccc(OC)cc3)ccc2S(=O)(=O)N([C@H](C)CO)C[C@H]1C under DUX4 inh control: 4.6

Returning to the listing with the two entries that preceded the break.
Results follow in this order: DUX4 inh, DUX4 inh difference, DUX4 inh control
COc1ccc(C(=O)N2C[C@H]3[C@@H](c4ccccc42)[C@H](CO)N3C(=O)c2ccc(F)cc2)cc1
→ -0.1, -1.8, 1.7
COCC(=O)N(C)C[C@H]1Oc2cc(-c3ccc(OC)cc3)ccc2S(=O)(=O)N([C@H](C)CO)C[C@H]1C
→ -0.9, -5.5, 4.6
CCc1cnc(N2[C@H](C#N)[C@@H](c3ccc(C#CC(C)C)cc3)[C@H]2CO)s1
→ -0.6, 0.0, -0.6
C[C@@H]1CN([C@@H](C)CO)C(=O)c2cc(NC(=O)c3ccncc3)ccc2O[C@@H]1CN(C)CC1CCCCC1
→ -2.3, 0.5, -2.8
C[C@H](NC(=O)C[C@@H]1CC[C@@H]2[C@H](COC[C@@H](O)CN2Cc2cc(F)ccc2F)O1)c1ccccc1
→ 0.1, -1.8, 1.9
Cc1noc(C)c1NC(=O)N(C)C[C@@H]1OCCCC[C@H](C)Oc2ccc(NC(=O)c3ccncc3)cc2C(=O)N([C@@H](C)CO)C[C@H]1C
→ 3.3, 5.0, -1.7
COc1ccc(NC(=O)N(C)C[C@H]2Oc3ncc(C#C[C@@H](C)O)cc3C(=O)N([C@@H](C)CO)C[C@H]2C)cc1
→ -3.1, -2.1, -1.0
CCS(=O)(=O)N1CC2(CN(Cc3ccc4c(c3)OCO4)[C@H](CO)c3c2c2ccc(OC)cc2n3C)C1
→ -8.9, 10.3, -19.2
CO[C@@H]1CN(C)C(=O)c2cc(NC(C)=O)ccc2OC[C@@H](C)NC[C@@H]1C
→ 1.6, 3.5, -1.9
CN1C(=O)c2cc(NC(=O)c3ccc(F)c(F)c3)ccc2OC[C@@H]2O[C@@H](CC(=O)N[C@H]3CCN(Cc4ccccc4)C3)CC[C@H]21
→ -2.1, -0.1, -2.0
COc1ccccc1NC(=O)N1CC(=O)N2[C@H](CO)[C@H](c3ccc(-c4cccc(C)c4)cc3)[C@@H]2C1
→ 9.2, 22.2, -13.0
O=C(c1ccc2c(c1)OCO2)N1CC(=O)N2[C@@H](CO)[C@@H](c3ccc(C#Cc4ccccc4)cc3)[C@@H]2C1
→ ?, ·, ·

In another format: results already given
Molecule,DUX4 inh,DUX4 inh difference,DUX4 inh control
COc1ccccc1NC(=O)N1CC(=O)N2[C@H](CO)[C@H](c3ccc(-c4cccc(C)c4)cc3)[C@@H]2C1,9.2,22.2,-13.0
CO[C@@H]1CN(C)C(=O)c2cc(NC(C)=O)ccc2OC[C@@H](C)NC[C@@H]1C,1.6,3.5,-1.9
C[C@H](NC(=O)C[C@@H]1CC[C@@H]2[C@H](COC[C@@H](O)CN2Cc2cc(F)ccc2F)O1)c1ccccc1,0.1,-1.8,1.9
C[C@@H]1CN([C@@H](C)CO)C(=O)c2cc(NC(=O)c3ccncc3)ccc2O[C@@H]1CN(C)CC1CCCCC1,-2.3,0.5,-2.8

Carrying on.
Results follow in this order: DUX4 inh, DUX4 inh difference, DUX4 inh control
C/C=C/c1ccc(C2[C@H]3CNC[C@@H]2N3C(=O)NC2CCCCC2)cc1 (stereo not given in full)
→ 8.7&20.1, 10.7&12.1, -2.0&8.0
CC(C)CC#Cc1ccc([C@H]2[C@@H](CO)N3C(=O)CN(C(=O)Nc4ccc(F)cc4)C[C@H]23)cc1
→ -1.1, -1.9, 0.7
CO[C@H]1CC[C@@H]2CCN(C)C(=O)[C@@H](C)CN(C)C(=O)c3cccc(C#N)c3OC[C@H]1O2
→ 2.5, -0.9, 3.4
C[C@H](CO)N1C[C@H](C)[C@H](CN(C)Cc2ccc3cccnc3c2)OCc2cn(nn2)CCCC1=O
→ 1.2, -3.8, 5.0
CO[C@@H]1CN(C)C(=O)c2ccc(NC(=O)C3CCCC3)cc2OC[C@H](C)N(CCC(F)(F)F)C[C@H]1C
→ -6.2, -1.8, -4.4
COc1cccc(S(=O)(=O)N2CCCCN3[C@H](C2)[C@@H](c2ccc(C#CC4CC4)cc2)[C@@H]3CO)c1
→ ?, ·, ·
CNC[C@@H]1Oc2ccc(NC(=O)Nc3ccc(F)cc3)cc2C(=O)N([C@@H](C)CO)C[C@H]1C
→ -2.9, -0.9, -1.9
CN1CCN(C(=O)C[C@H]2CC[C@H]3[C@@H](COC[C@H](O)CN3C(=O)Cc3ccccc3)O2)CC1
→ 4.9, 3.3, 1.6
C[C@@H]1CN([C@@H](C)CO)C(=O)c2cc(NC(=O)Nc3cccc4ccccc34)ccc2O[C@@H](C)CCCCO[C@H]1CN(C)Cc1ccc(C(F)(F)F)cc1
→ -1.7, -0.7, -1.0
CCCC(=O)Nc1ccc2c(c1)C(=O)N(C)C[C@H](OC)[C@H](C)CN(Cc1ccc(F)cc1)[C@@H](C)CO2
→ ?, ·, ·

This is a subset; the hit share may differ from the screen's.
